# Calb FLC: C. albicans growth modulation with fluconazole. C. albicans CaCi-2 (fluconazole-resistant clinical isolate) + fluconazole, Alamar Blue growth, 48 h. growth inhibition, % (no concentration beside the values). 300,000 tested, 0.57% active. AID 1979;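 active = most replicates above 75%; inconclusive = exactly half above 75%; inactive = most below 75%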;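 also: all wells also contain fluconazole at 8 µg/ml as a sub-toxic cotreatment; 0% = median of DMSO wells and 100% = median of geldanamycin control wells; wells of about 8 µL received 7.5 nL stock; the first replicate is given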
# ALR inh: inhibitors of human sulfhydryl oxidase ALR | P55789 | purified ALR, DTT oxidation, H2O2 HRP-luminol luminescence | inhibition, % (test concentration not listed) | 290,000 tested, 3.8% active | AID 485317;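 active = mean and each replicate at 75% or more; inconclusive = only one of the two met; inactive = neither met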;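 also: stock transfer was 7.5 nL into about 7.5 µL; 0% = neutral wells and 100% = wells with inactivated enzyme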
# Target sequence (P55789 whole entry, looked up): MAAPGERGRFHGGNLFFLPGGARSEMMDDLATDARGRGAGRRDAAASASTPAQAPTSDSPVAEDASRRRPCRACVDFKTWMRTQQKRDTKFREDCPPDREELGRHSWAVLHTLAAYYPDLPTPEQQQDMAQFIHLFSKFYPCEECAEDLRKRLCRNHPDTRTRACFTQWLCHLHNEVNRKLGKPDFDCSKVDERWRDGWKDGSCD
# B2AR ag: agonists of human beta-2 adrenergic receptor inducing internalization; P07550; Am2.2-beta2AR cells, FAP receptor internalization, flow cytometry; reference of the scale not given here; response, % (concentration not given with the values); 340,000 tested, 0.43% active;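 active = response above a set limit, near 3 SD of response in nonfluorescent compounds, cut at about 42% in these data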;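 also: stock transfer was 100 nL into about 11 µL; a reference agonist was the positive control; negative values mostly stem from fluorescent compounds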
# Target sequence (P07550 whole entry, looked up): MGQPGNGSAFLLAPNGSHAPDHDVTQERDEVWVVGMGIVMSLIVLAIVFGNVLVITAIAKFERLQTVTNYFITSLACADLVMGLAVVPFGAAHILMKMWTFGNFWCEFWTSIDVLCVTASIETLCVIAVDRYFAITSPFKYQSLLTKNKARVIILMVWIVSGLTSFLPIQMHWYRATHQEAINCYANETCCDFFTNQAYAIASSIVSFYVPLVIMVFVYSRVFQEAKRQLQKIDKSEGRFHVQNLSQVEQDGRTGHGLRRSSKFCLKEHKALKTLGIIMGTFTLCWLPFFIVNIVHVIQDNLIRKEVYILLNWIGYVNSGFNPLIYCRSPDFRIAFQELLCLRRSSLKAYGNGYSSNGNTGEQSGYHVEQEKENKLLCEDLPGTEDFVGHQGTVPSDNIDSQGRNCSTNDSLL
# RanGTP-Impb inh: disruptors of Ran-importin-beta complex formation – biochemical, FRET, CFP-Ran, YFP-importin-beta, homogeneous, primary screen; 300,000 tested, 1.1% active; AID 2216; inhibition, % (no concentration beside the values); cell-free CFP-Ran/YFP-importin-beta FRET ratio;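 active = most replicates above 15%; inconclusive = exactly half above 15%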;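 also: 0% = DMSO wells and 100% = Ran loaded with GDP instead of GTP; wells of about 40 µL received 100 nL stock; the first replicate is given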
# LANA-H2A inh: blocks KSHV LANA binding to histone H2A/H2B; inhibition, % (no concentration beside the values); Q9QR71; cell-free LANA-H2A/H2B peptide, fluorescence polarization; 320,000 tested, 0.6% active; in the data active = inhibition mostly above about 10%, no sharp cut-off; inactive = mostly below about 6.7%;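 also: stock transfer was 7.5 nL into about 10 µL; 0% = median of vehicle wells and 100% = median of positive control wells; one replicate is shown; the record names a cut of 25% in any replicate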
# Vif A3G: HIV-1 Vif–A3G interaction blockers – biochemical, TR-FRET, GST-Vif 1-94, biotin-A3G peptide, dose response retest, primary screen (AID 1117319); TR-FRET GST-Vif / biotin-A3G peptide binding; higher % means a stronger effect; test concentration not given here; strong numbers were not always called active; one-dose inhibition, %; IC50 in µM for titrated hits; 260,000 tested, 0.57% active;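 active = above the screen mean plus three standard deviations and confirmed in dose response; inconclusive = results disagree or hit not tested in dose response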;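 also: Vif residues 1-94 fused to GST binding biotinylated APOBEC3G peptide 110-148; 0% = full assay without inhibitor and 100% = GST in place of GST-Vif; retest series ran down from 100 µM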
# HNF4A DNA FP: change in binding of human HNF4 alpha to DNA; P41235; HNF4a-FITC DNA binding, fluorescence polarization, 1 h; activity change, % at 10 µM; 360,000 tested, 0.3% active; AID 1224865; in the data active = activity change above about 30%, passing the limit was not always enough;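 also: controls were the assay level and a saturating level of protein; the project sought stronger binding though the title names inhibitors; some compounds called inactive have numbers as strong as hits; positive values seem to mean higher polarization but the record does not say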
# Target sequence (P41235 whole entry, looked up): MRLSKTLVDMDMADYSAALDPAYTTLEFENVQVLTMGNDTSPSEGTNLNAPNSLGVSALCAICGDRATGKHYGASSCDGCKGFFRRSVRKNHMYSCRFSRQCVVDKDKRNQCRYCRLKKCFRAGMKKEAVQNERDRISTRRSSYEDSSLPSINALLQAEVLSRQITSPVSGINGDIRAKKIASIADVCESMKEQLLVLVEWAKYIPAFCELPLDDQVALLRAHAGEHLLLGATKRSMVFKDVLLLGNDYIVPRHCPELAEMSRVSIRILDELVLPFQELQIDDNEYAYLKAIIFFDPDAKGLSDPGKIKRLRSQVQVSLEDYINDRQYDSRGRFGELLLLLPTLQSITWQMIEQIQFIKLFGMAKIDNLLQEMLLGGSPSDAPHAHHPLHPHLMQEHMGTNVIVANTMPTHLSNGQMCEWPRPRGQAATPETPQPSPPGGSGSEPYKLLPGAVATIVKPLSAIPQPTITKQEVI
# An asterisk follows results filed as active; i = inactive; ? = inconclusive; · = no result given.
SMILES,Calb FLC,ALR inh,B2AR ag,RanGTP-Impb inh,LANA-H2A inh,Vif A3G,HNF4A DNA FP
Cc1ccc(NC(=O)CSc2nnc(-c3cccs3)n2Cc2ccco2)cc1,-1,-1,-1,0.4,-3.7,7%,5.7
Cc1ccc(CNC(=O)[C@@H](NC(=O)Cc2ccccc2)C(C)C)cc1,-22,·,-4,-0.5,6.8,·,5.3
CCOC(=O)C1CSc2[nH]c(=O)sc2C1c1ccccc1 (stereo not given),0,11,-6,0.3,-1.9,2%,-0.4
COc1ccc(/C=C2/SC(=O)N(CCCCCC(=O)Nc3ccccc3C(=O)O)C2=S)cc1,?,99*,1,-1.7,-7.3,2%,-4.3
N#Cc1nc(-c2ccc(F)cc2)oc1NCCN1CCOCC1,-1,65,-1,-2.8,0.1,0%,1.6
Cc1c(Cl)cccc1NC(=S)NN,0,41,-2,4.2,3.2,0%,-0.4
Cc1ccccc1CNc1ccc(C(CC(N)=O)NC(=O)c2ccccc2)cc1[N+](=O)[O-] (stereo not given),2,2,0,-4.9,0.5,·,19
O/N=C/c1cn(-c2ccccc2)nc1-c1cccnc1,15,11,-10,2.1,0.8,0%,-1.6
CO/N=C(\Cn1ncc(N2CCOCC2)c(Br)c1=O)c1ccc(Cl)cc1,-34,5,0,1.4,6.2,8%,2.0
O=C1CCCC/C1=C/NCc1ccc(F)cc1,-18,47,-2,-4.1,2.4,10%,1.5
CCOC(=O)c1cc(NC(=O)c2ccccc2)c(=O)n2c1oc1ccccc12,-13,-15,8,-0.6,-2.3,8%,-0.9
CCCC(=O)Nc1ccc(Cl)c(NC(=S)NC(=O)C(C)C)c1,-7,3,3,0.2,-3.9,0%,-5.7
CCOc1ccc(NC(=S)c2ccc3ccccc3n2)cc1,-2,-5,-1,2.4,0.0,·,-0.5
Cc1onc(-c2ccccc2)c1C(=O)N1CCN(c2ccccc2F)CC1,12,2,-3,-1.8,-4.7,·,0.1
Cc1cc(C)nc(NC2=NC3CCCCC3N2)n1 (stereo not given),0,-5,0,-1.8,3.6,2%,-0.6
CCOn1c(=O)c(-c2ccc(F)cc2)[n+]([O-])c2ccccc21,4,1,2,-4.1,-1.1,-6%,2.9
CC(NS(=O)(=O)c1ccccc1)C(N)=O (stereo not given),-9,-1,3,?,2.2,32%,0.3
Cc1ccc(C)c(S(=O)(=O)NC(CC(C)C)C(=O)O)c1 (stereo not given),-6,-3,-1,-0.9,10,-4%,0.4
CN(CC(=O)NC(=O)NCc1ccccc1)Cc1cccc(Cl)c1Cl,-2,·,0,4.3,·,·,0.0
O=C(Nc1nc2ccccc2s1)C1=NN(c2ccccc2)C(=O)CC1,-10,8,-5,-2.3,3.9,24%,2.6

# In the list so far, two contain a COOH group:
SMILES,Calb FLC,ALR inh,B2AR ag,RanGTP-Impb inh,LANA-H2A inh,Vif A3G,HNF4A DNA FP
COc1ccc(/C=C2/SC(=O)N(CCCCCC(=O)Nc3ccccc3C(=O)O)C2=S)cc1,?,99*,1,-1.7,-7.3,2%,-4.3
Cc1ccc(C)c(S(=O)(=O)NC(CC(C)C)C(=O)O)c1 (stereo not given),-6,-3,-1,-0.9,10,-4%,0.4

# Next entries follow:
SMILES,Calb FLC,ALR inh,B2AR ag,RanGTP-Impb inh,LANA-H2A inh,Vif A3G,HNF4A DNA FP
Cc1cc(C)c(S(=O)(=O)Nc2cnc3ccccc3c2)c(C)c1,45,0,-1,?,1.4,·,-1.3
Cc1cc(Cl)c(S(=O)(=O)Nc2ccc(S(=O)(=O)N3CCOCC3)cc2)cc1OCC(N)=O,-9,1,i,-1.7,1.7,5%,-3.0
O=C(O)CCN1CCN(S(=O)(=O)c2ccc3ccccc3c2)CC1,13,-5,-8,2.0,-6.6,·,-5.5
O=C1CCCN2N=C(SCC(=O)Nc3ccccc3C(F)(F)F)SC2=N1,1,-5,0,-1.2,3.8,-3%,0.1
O=[N+]([O-])c1ccc(CSC2=NCCN2)cc1,4,99*,-1,7.6,2.5,·,0.4
O=C(O)C1=C[C@H](c2coc3ccccc3c2=O)C[C@H](OCc2ccc(CO)cc2)O1,-2,-4,3,0.3,2.3,6%,-3.0
CC(C)(O)c1cc2ccc(C#CCCN3C(=O)c4ccccc4C3=O)cc2c(=O)o1,·,2,14,·,3.1,·,-2.7
CNS(=O)(=O)c1cccc(C(=O)NNC(=O)c2ccc(COc3ccccc3)cc2)c1,-1,-1,9,-1.5,3.6,·,-1.4
COc1ccc(-c2cc(N)n(CCC#N)n2)c(OC)c1,13,1,3,1.0,-7.7,-2%,3.0
COc1ccc(NC2=CC(=O)N(C)C2=O)cc1,-5,5,0,-0.3,-5.5,20%,1.7
CN(C)C(CNC(=O)CNC(=O)c1ccc2ccccc2c1)c1ccccc1 (stereo not given),3,-2,2,-1.3,-0.6,·,4.0
Cc1ccc(O)c(NC(=S)NC(=O)C(C)C)c1,-1,53,-3,-0.9,6.0,5%,-1.0
COc1ccc(C2N(c3cc(C)on3)C(=O)C3CCCN32)cc1OC (stereo not given),-1,0,6,1.7,-1.2,-4%,-2.8
COc1cccc(C(=O)NN/C(C)=C/C(=O)C(F)(F)C(F)(F)C(F)(F)F)c1,-23,6,3,-0.1,-0.9,-4%,7.0
COC(=O)N/N=C/c1cn(CCOc2ccccc2)c2ccccc12,1,-4,-16,7.5,-13,4%,0.5
CSc1nc2oc3c(c2c2nncn12)CC(C)(C)SC3,4,13,-2,-1.7,-3.4,0%,-1.8
COCc1[nH]nc2c1C(c1ccccc1Cl)C(C#N)=C(N)O2 (stereo not given),-6,15,1,-2.3,-1.7,-4%,2.5
COCCCNC(=O)Cn1c(=O)n(CCCCCC(=O)NCc2ccc3c(c2)OCO3)c(=O)c2sccc21,6,-5,35,?,2.7,22%,0.2
CCCCOC(=O)c1[nH]c(C)c(C(=O)OC)c1C,2,·,-3,4.7,0.0,2%,-1.9
CCn1c(SCC(=O)Nc2c(C#N)cnn2-c2ccccc2)nnc1-c1cccs1,-5,-14,-4,4.5,3.2,-1%,-4.6
CCC(COC(=O)Nc1cccc(C)c1C)NC(=O)OCC(C)C (stereo not given),-5,·,-3,-0.3,-8.0,?,0.9
Cc1cc(C)cc(OCC(=O)Nc2ccc(-n3cnnn3)cc2)c1,·,15,6,·,2.0,·,0.3
Cc1ccc(N(CN2C(=O)c3ccccc3C2=O)C(=O)c2ccc([N+](=O)[O-])cc2[N+](=O)[O-])cc1,41,-44,-27,0.9,-2.5,23%,4.6
Cc1[nH]nc(SCC(=O)Nc2ccc(C#N)cc2)c1[N+](=O)[O-],0,0,2,-1.0,-1.5,·,3.5
CN(Cc1nc2ccccc2s1)C(=O)c1ccc(F)cc1,-3,-2,-1,0.6,1.5,·,-1.2
COc1ccc(CCN=C(N)NS(=O)(=O)c2cc(F)ccc2F)cc1,-6,0,-1,3.4,-6.6,·,-1.8
CC(CCc1ccccc1)NC(=O)CN1CCSc2ccccc21 (stereo not given),11,99*,6,-5.1,-1.2,-4%,0.8
CCOP(=O)(c1ccccc1)C(O)c1ccc(Br)cc1 (stereo not given),-2,-11,16,1.3,0.3,·,0.5
COc1ccccc1CN1CCN(S(=O)(=O)c2ccccc2)CC1,0,2,-2,4.5,-0.2,-3%,2.2
O=c1oc2ccccc2n1Cc1ccccc1,6,-2,1,0.6,1.3,3%,-4.4
O=C(COc1ncnc2ccc(Br)cc12)NC1CCCC1,·,·,-2,·,-3.4,4%,2.2
CS(=O)(=O)N1CCC(C(=O)Nc2cc(C(F)(F)F)ccc2Cl)CC1,-1,-2,-1,-3.4,-9.1,19%,1.5
CCOc1ccccc1CN1CCN(Cc2ccc3cc(F)ccc3n2)CC1CCO (stereo not given),-1,-7,-4,-1.6,-1.9,·,2.2
CN(C)S(=O)(=O)c1cccc(NC(=O)COC(=O)CNC(=O)c2ccccc2F)c1,-5,-8,6,-4.2,4.1,23%,-1.8
Cn1c(CCN2CCCCC2)nc2cc(NC(=O)COc3ccc([N+](=O)[O-])cc3)ccc21,·,-5,4,1.6,-2.0,·,-3.0
Nc1nc(-c2cccs2)cs1,-31,-5,-1,-4.1,4.5,0%,-1.2
CC(C)N(C(=O)[C@H]1C[C@H](CC(=O)NCCCN(C)C)C(=O)N2CCc3c([nH]c4cc(-c5ccco5)ccc34)[C@]12C)C(C)C,·,·,26,·,·,5%,-0.7
CC(=O)c1ccc(N2CCN(S(=O)(=O)c3cc4[nH]c(=O)c(=O)[nH]c4cc3C)CC2)cc1,7,·,2,1.7,·,·,2.7
O=C(NCc1cccnc1)c1cccc2c1C(=O)N(C1CCCCC1)C2,6,5,-11,-2.2,3.9,-3%,-0.6
Cc1ccc(NC(=O)C(SCC(=O)O)c2ccccc2)cc1C (stereo not given),23,·,-2,1.3,1.9,4%,0.0
Cc1ncc([N+](=O)[O-])n1CC(=O)NCCc1ccccc1,-2,19,-17,-3.9,-0.3,-4%,-1.4
Cc1ccc(CN2CCSc3ccc(C(=O)NCc4ccco4)cc32)cc1,-4,47,13,-1.9,-4.3,-8%,3.0
CCc1sc(N(C(=O)Cc2ccccc2)c2ccc(F)cc2)nc1-c1ccccc1,-2,0,-11,-2.0,-1.4,0%,1.0
Cc1ccc(CNC(=O)COc2ccc3c(c2)CCC3)cc1,2,-1,-3,-2.5,-2.8,45µM*,5.6
O=C(NC1CCS(=O)(=O)C1)c1cc(-c2ccccc2)nc2ccccc12 (stereo not given),-16,-16,-8,3.1,3.9,-4%,-2.1
CN1CCN(CCCNC(=O)c2cn(C3CCCCC3)c(=O)c3c2c2ccccc2n3C)CC1,0,0,3,-1.1,2.9,-4%,-2.0
CCOC(=O)C1CCN(C(=O)COC(=O)c2cc([N+](=O)[O-])ccc2N2CCOCC2)CC1,7,2,4,-1.5,3.1,-7%,5.2
COc1ccccc1CNC(=O)c1ccc(Br)o1,-7,·,-5,-6.3,-0.5,8%,-0.2
O=C(Nc1ccc2c(c1)OCO2)NC1(C(F)(F)F)Oc2ccccc2O1,-2,-13,-5,3.7,-0.9,18%,0.4
Cc1nn(-c2ccccc2)c(C)c1Cc1ccc(O)cc1,4,57,4,-1.4,-4.0,-8%,6.3

# Later entries
SMILES,Calb FLC,ALR inh,B2AR ag,RanGTP-Impb inh,LANA-H2A inh,Vif A3G,HNF4A DNA FP
COC(=O)CS(=O)(=O)c1ccc2c(c1)CC(=O)N2,-5,-6,0,-1.4,-3.0,6%,-1.2
COC(=O)c1cc(Cn2nc(C(=O)O)c3ccccc3c2=O)oc1C,·,0,-2,4.1,0.1,-5%,3.0
COCCCNC(=S)N1CCN(C)CC1,12,-2,14,4.4,3.0,-1%,1.9
Cc1ccc(NC(=O)CSc2nnc(-c3ccncc3)n2N)cc1C,1,-4,0,3.4,-4.5,-33%,2.3
O=C(CN1CCCCCCC1)N/N=C/c1ccccc1F,-6,·,-3,2.5,-1.1,0%,3.5
COC(=O)C1=C(C)NC(=O)/C1=C\c1cccs1,-9,7,-1,6.7,-1.9,>100µM*,3.0
Cc1ccc(N2C(SCC(=O)O)=NC(=Nc3cccc(C)c3)C23CCCC3)cc1,-5,-13,-1,-1.1,-0.4,0%,1.8
CC(C)OC(=O)Cn1nnc2c(cnn2-c2ccccc2)c1=O,-4,5,2,0.8,0.3,-4%,0.4
O=C(NCCc1ccccc1)C1CCN(S(=O)(=O)N2CCCC2)CC1,23,·,-3,-2.6,2.3,5%,-1.9
COc1ccc(-c2oc(=O)c3cc(OC)c(OC)cc3c2/C=C/c2cccc([N+](=O)[O-])c2)cc1,·,-11,39,·,-8.0,·,-3.9
COc1ccc(C(=O)NC2CCCc3c2cnn3-c2cccc(C)c2C)o1 (stereo not given),-1,47,0,?,-0.5,·,3.0
CCN(CC)CCCN(C(=O)c1ccccc1F)c1nc(-c2ccc(OC)cc2)cs1,-37,-8,12,6.5,-0.6,·,0.3

# Bioassay records (PubChem BioAssay)

# Outcome played no part in choosing rows. Share with any hit: about 6.3%.
